Source: PubChem
RE007 growth inh = less growth of the S. pombe RE007 Vpr strain; S. pombe RE007 Vpr strain, BacTiter-Glo ATP luminescence, 24 h; control for the full effect not named in the record; Potency, µM (top dose mostly 92.2 µM), for the others: top-dose activity change, negative = less growth; actives 0.21% (n = 360,000); active = well fitted falling curve with a large enough effect; inconclusive = small, poorly fitted or top-dose-only effect; inactive = no such curve, though single readings can be large or run the other way;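 also: % is scaled to controls: 0 for no effect and ±100 for the full control effect; nearly all actives have a fitted effect of over 50% in size; the assay follows cell death caused by Vpr and the record does not say whether a fall means rescue or toxicity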
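Fission yeast RE007 carrying one integrated HIV-1 vpr copy, seeded at OD 0.01 in PMG+AL medium with 23 nL pinned compound. Grown 24 h at 30 degrees; viability read by BacTiter-Glo luminescence after 5 min.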
MARV entry inh = blocks Marburg virus binding to or entry into cells; actives 1.8% (n = 300,000); Potency, µM (titrated, usually from 37.8 µM), for inactives: top-dose activity change, negative = inhibition, hits mostly inhibitors; Marburg virus pseudotyped entry inhibition, cell reporter; control for the full effect not named in the record; about a third of the inactives were read at about 46 µM; AID 540276; active = well fitted inhibition curve with a large enough effect; inconclusive = small, poorly fitted or top-dose-only effect, or effect the other way; inactive = flat fitted curve, though single readings scatter; tested in HEK293 cells; about a fifth of its hits are not listed in these tables; also: % is scaled to controls: 0 for no effect and ±100 for the full control effect; luciferase read-out
LASV entry inh = Lassa virus entry inhibition | Potency, µM (series often up to 37.9 µM), for the others: top-dose activity change, negative = inhibition, actives largely listed as inhibitors | Lassa virus pseudotype entry inhibition, cell reporter; control for the full effect not named in the record | actives 1.2% (n = 300,000); active means well fitted inhibition curve with a large enough effect; inconclusive means small, poorly fitted or top-dose-only effect, or effect the other way; inactive means flat fitted curve, though single readings scatter; tested in HEK293 cells; also: % is scaled to controls: 0 for no effect and ±100 for the full control effect; nearly all actives have a fitted effect of over 50% in size; luciferase read-out
NS1 inh = influenza NS1 inhibition | AID 2326 | Potency, µM (doses to about 46.1 µM), for inactives: at the highest dose activity, positive = more growth | S. cerevisiae slowed by influenza A NS1, growth recovery by OD600 | actives 0.4% (n = 270,000); also: actives are rising curves; nearly all actives have a fitted effect of over 50% in size
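A cell-based growth assay was used: compounds that relieve NS1-induced slow growth of budding yeast raise OD600. Assay medium was yeast nitrogen base with ammonium sulphate and -URA supplement, pH 6.0, with 2% galactose.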
Cruzain Triton = inhibitors of Trypanosoma cruzi cruzain with detergent | P25779 | Potency, µM, for the others: max response, negative = inhibition, hits mostly inhibitors | purified cruzain, Z-FR-AMC fluorescence, 0.01% Triton | AID 1478 | actives 0.43% (n = 200,000); active = well fitted curve in the direction sought with a large enough effect; inconclusive = small, poorly fitted or top-dose-only effect, or another doubt; inactive = no such curve, though single readings can be large; an effect the other way counts as inactive or inconclusive;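 also: plate controls were neutral wells for no effect and buffer without enzyme for full effect; nearly all actives have a fitted effect of over 40% in size; top concentration of the series not given in the record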
Target sequence (P25779 123-467 limits assumed): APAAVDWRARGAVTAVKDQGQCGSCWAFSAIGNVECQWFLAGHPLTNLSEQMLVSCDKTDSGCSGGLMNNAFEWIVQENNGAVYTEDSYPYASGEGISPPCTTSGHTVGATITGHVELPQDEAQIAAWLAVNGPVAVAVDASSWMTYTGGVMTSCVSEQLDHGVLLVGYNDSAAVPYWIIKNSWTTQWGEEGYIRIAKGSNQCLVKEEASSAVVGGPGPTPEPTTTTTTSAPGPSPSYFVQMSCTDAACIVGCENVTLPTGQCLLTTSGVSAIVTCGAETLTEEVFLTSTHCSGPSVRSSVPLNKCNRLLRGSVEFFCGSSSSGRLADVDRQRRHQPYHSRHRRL
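15 min RT preincubation of 1.5 nM cruzain with compound, then 2 uM Z-FR-AMC added; kinetic AMC fluorescence, 60 s delta. Triton X-100 0.01%, pH 5.5.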
2A StopGo = lowers the luciferase signal of an FMDV 2A StopGo reporter. human cells with a luciferase reporter of 2A StopGo recoding; control for the full effect not named in the record. Potency, µM (doses to about 57.9 µM), inactives show at the highest dose signal change, negative = less light. actives 1.2% (n = 410,000); active = well fitted falling curve with a large enough effect; inconclusive = small, poorly fitted or top-dose-only effect; inactive = no such curve, though single readings can be large or run the other way; tested in HEK293T cells; also: % is scaled to controls: 0 for no effect and ±100 for the full control effect; nearly all actives have a fitted effect of over 45% in size; luciferase light after 4 h
Cruzain noTriton = cruzain (T. cruzi) inhibition without detergent; actives 2.3% (n = 200,000); purified cruzain, Z-FR-AMC fluorescence, no detergent; AID 1476; Potency, µM, for the others: max response, negative = inhibition, usual class: inhibitors; P25779; active = well fitted curve in the direction sought with a large enough effect; inconclusive = small, poorly fitted or top-dose-only effect, or another doubt; inactive = no such curve, though single readings can be large; an effect the other way counts as inactive or inconclusive;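 also: plate controls were enzyme without inhibitor for no effect and buffer without enzyme for full effect; nearly all actives have a fitted effect of over 40% in size; top concentration of the series not given in the record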
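Detergent-free condition (0.00005% Triton X-100) in acetate buffer pH 5.5 with DTT. 1.5 nM enzyme and compound were pre-mixed 15 min, then 2 uM Z-FR-AMC substrate added; reaction progress from fluorescence change between first and third reads (60 s).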
SARS PLP yeast = inhibitors of SARS-CoV papain-like protease in yeast; S. cerevisiae expressing SARS-CoV PLpro, growth rescue; control for the full effect not named in the record; actives 0.19% (n = 330,000); Potency, µM (top dose mostly 32.9 µM), for the others: at the top dose activity, positive = growth rescue; also: 0% is about no effect; nearly all actives have a fitted effect of over 55% in size; growth read by luminescence after 48 h
* = called active by the depositor; ? = inconclusive; nt = no result given; [ ] = remark or other dose. Unless noted, calls follow the shape of the dose curve; as a rule, active means well fitted rising curve with a large enough effect; inconclusive means small, poorly fitted or top-dose-only effect; inactive means no such curve, though single readings can be large or run the other way. Potency is read from the fitted curve at half-maximal effect.

SMILES	RE007 growth inh	MARV entry inh	LASV entry inh	NS1 inh	Cruzain Triton	2A StopGo	Cruzain noTriton	SARS PLP yeast
O=C(Nc1ccc(N2CCN(c3ccc(C(F)(F)F)cn3)CC2)nc1)c1cccs1	20%	-9%[46.1 µM]	-22%	3%	nt	?	nt	-1%
CCn1nnc(NC(=O)C(c2ccccc2)c2ccccc2)n1	10%	5%	6%	-1%	nt	-9%	nt	-1%
CCOC(=O)N1CCN(C(=O)/C=C/c2ccc(OC)c(OC)c2)CC1	2%	nt	nt	3%	nt	-6%	nt	23%
Cc1ccc(CNC(=O)Cc2cccs2)cc1	-14%	13%[46.1 µM]	0%	-3%	2.9%	23%	1%	-7%
CC1CC2(CCCCC2)Nc2ccc3ccccc3c21 (stereo not given)	5%	-4%	?	-4%	-3.3%	-28%	-4%	2%
Cc1cccc(CSc2nn3c(=O)c(C)nnc3s2)c1	-6%	21%	-9%	8%	-5.3%	-9%	10%	-8%
O=C(NCc1cccc(C(F)(F)F)c1)C1CC(c2ccccc2C(F)(F)F)=NO1 (stereo not given)	-6%	nt	nt	7%	nt	-16%	nt	-7%
O=c1n(Cc2ccccc2Cl)c2ccccc2c2nc(-c3ccccc3)nn12	nt	19%[46.1 µM]	0%[46.1 µM]	nt	2.6%	-10%	-9%	nt
CCC(CC)C1C(C#N)=C(N)Oc2cc(C)oc(=O)c21 (stereo not given)	-14%	-5%	-3%	-6%	0.7%	nt	5%	6%
Cc1cccc(C(=O)OCC(=O)NCc2cccs2)c1	11%	6%[46.1 µM]	28%	-7%	nt	-10%	nt	-3%
COc1ccccc1C(=O)NC(=O)Nc1ccc(-n2nc(C(F)(F)F)cc2C(F)(F)F)cc1	nt	-9%[46.1 µM]	-1%[46.1 µM]	nt	-2.0%	-21%	-7%	nt
Cc1cccc(CS(=O)(=O)Cc2ccc(C(=O)NC3CCCC3)o2)c1	-3%	nt	nt	2%	nt	-13%	nt	23%
c1ccc(-c2nc(N3CCOCC3)cc(N3CCOCC3)n2)cc1	-12%	?	?	0%	nt	9%	nt	0%
O=C(Cc1ccc([N+](=O)[O-])cc1)NCc1cccnc1	5%	-4%	4%	12%	nt	-8%	nt	7%
O=C(N/N=C/c1c[nH]c2ccccc12)c1ccc(Cl)cc1	-11%	?	8%	-7%	nt	52%[activator]	nt	0%
Cn1c(SCc2cccc(C#N)c2)nc2ccccc2c1=O	9%	-7%[46.1 µM]	?	-28%	nt	?	nt	-1%
CCn1c(O)c(C(c2ccccn2)c2c(O)n(CC)c(=S)[nH]c2=O)c(=O)[nH]c1=S	4%	6%	-1%	-7%	-1.9%	9%	-5%	2%
O=c1oc2cc(Br)ccc2n1Cc1ccccc1	-8%	1%	3%	5%	nt	-24%	nt	-1%
O=C(CCN1C(=O)/C(=C/c2cccs2)SC1=S)Nc1ccc(O)cc1	-6%	0%[46.1 µM]	-18%[46.1 µM]	15%	nt	-7%	nt	0%
CN(C(=O)COc1ccc(Cl)cc1Cl)C1(C)CCS(=O)(=O)C1 (stereo not given)	-16%	?	6%	nt	nt	-25%	nt	4%
COc1ccc(OC)c(C(=O)c2ccc(C(=O)Nc3ccc(NC(C)=O)cc3)cc2)c1	0%	?	?	18%	nt	18%	nt	1%
O=C(/C=C/c1ccccc1)c1c[nH]c2ccccc12	-7%	nt	nt	-34%	nt	-29%	nt	-3%
COc1ccccc1-c1nnc(NC(C)=O)s1	-30%	-9%	-26%	-2%	0.6%	6%	3%	3%
COc1ccc(OC)c(S(=O)(=O)N2CCC(C(=O)NC3CCCCC3)CC2)c1	6%	27%[46.1 µM]	1%	-9%	nt	-11%	nt	3%
CCn1c(-c2csc3ccccc23)n[nH]c1=S	8%	?	1%	0%	-1.3%	-2%	?	-6%
NC(=O)CCCSc1nc2ccccc2[nH]1	-3%	24%[46.1 µM]	4%[46.1 µM]	nt	nt	1%	nt	0%
Nc1cc(N)nc(SCC(=O)N2CCCCC2)n1	3%	5%	1%	3%	1.3%	33%[activator]	-2%	3%
CNNC(=S)Nc1cccc(C(F)(F)F)c1	3%	2%	nt	5%	nt	-12%	nt	-1%
COc1ccc(C(=O)NC(=S)NNC(=O)Cc2cccs2)cc1	?	1%	-1%	-133%	0.0%	-6%	-9%	22%
CCOc1ccccc1-n1cnc2cc(C(=O)NCc3ccco3)ccc21	21%	?	-1%	-34%	0.1%	-4%	-3%	1%
O=C(C1CCN(S(=O)(=O)c2ccc(Br)s2)CC1)N1CCCCC1	-3%	-27%[46.1 µM]	-25%	13%	nt	-29%	nt	0%
O=C(NCCCN1CCCCCC1)c1cc2c(=O)oc3ccccc3c2s1	-21%	10%[46.1 µM]	15%[46.1 µM]	25%	nt	-2%	nt	0%
CSc1ccc(C(=O)C2CCCN(Cc3cc4ccccc4[nH]3)C2)cc1 (stereo not given)	-3%	3.5µM*	?	-2%	nt	?	nt	-1%
O=[N+]([O-])c1ccc(/C=N/N/C(=N/c2ccccn2)c2ccccn2)cc1	0%	?	?	-7%	-2.7%	nt	4%	?
Cc1csc(=Nc2ccccc2)n1Cc1ccco1	5%	nt	nt	0%	nt	-1%	nt	-3%
Cc1cc(C)nc(N/N=C2/CCCC/C2=C\c2ccccc2)n1	-14%	?	nt	nt	nt	-22%	nt	0%
O=C(Cn1cnc2scc(-c3cccc([N+](=O)[O-])c3)c2c1=O)NCc1ccco1	-2%	1%[46.1 µM]	16%	nt	nt	-28%	nt	2%
Cc1ccc2c(c1)C(O)(CC(=O)c1ccc(C)s1)C(=O)N2 (stereo not given)	-3%	29%	14%	4%	nt	6%	nt	1%
COc1ccc2c3c1O[C@H]1C(=O)CC[C@@]4(O)C(C2)N(CC2CC2)CCC314 (stereo not given in full)	nt	?	nt	-11%	-3.3%	nt	7%	nt
CN(C)S(=O)(=O)c1cccc(C(=O)Nc2ccc(N3CCOCC3)cc2)c1	-8%	7%	5%	10%	nt	2%	nt	0%

Single records (already shown). Order of screens: RE007 growth inh, MARV entry inh, LASV entry inh, NS1 inh, Cruzain Triton, 2A StopGo, Cruzain noTriton, SARS PLP yeast
COc1ccc(OC)c(C(=O)c2ccc(C(=O)Nc3ccc(NC(C)=O)cc3)cc2)c1 as listed: 0%, ?, ?, 18%, nt, 18%, nt, 1%
COc1ccc2c3c1O[C@H]1C(=O)CC[C@@]4(O)C(C2)N(CC2CC2)CCC314 (stereo not given in full) as listed: nt, ?, nt, -11%, -3.3%, nt, 7%, nt
Cc1ccc2c(c1)C(O)(CC(=O)c1ccc(C)s1)C(=O)N2 (stereo not given) as listed: -3%, 29%, 14%, 4%, nt, 6%, nt, 1%
COc1ccc(OC)c(S(=O)(=O)N2CCC(C(=O)NC3CCCCC3)CC2)c1 as listed: 6%, 27%[46.1 µM], 1%, -9%, nt, -11%, nt, 3%
O=C(Cn1cnc2scc(-c3cccc([N+](=O)[O-])c3)c2c1=O)NCc1ccco1 as listed: -2%, 1%[46.1 µM], 16%, nt, nt, -28%, nt, 2%

Additional records.
SMILES	RE007 growth inh	MARV entry inh	LASV entry inh	NS1 inh	Cruzain Triton	2A StopGo	Cruzain noTriton	SARS PLP yeast
N#CCCN1CCN(C2=NC(=O)C(=C3CCCCC3)S2)CC1	-14%	?	16%	-1%	-5.9%	43%[activator]	-2%	13%
COc1ccc(C(=S)N2CCN(c3ccccc3C)CC2)cc1	11%	nt	nt	-33%	nt	3%	nt	11%
COc1ccc(CNC(=O)CN2N=C(c3ccc(Cl)cc3)CCC2=O)cc1	nt	nt	22%[46.1 µM]	nt	0.2%	-7%	?	nt
Cc1cc(C)n(-c2cc(N3CCN(C(=O)c4cccc(Br)c4)CC3)ccc2[N+](=O)[O-])n1	-9%	?	-17%	-7%	-6.3%	14µM*	5%	0%
O=C(/C=C/c1cccc([N+](=O)[O-])c1)N1CCN(c2ccc(F)cc2)CC1	1%	?	-12%	8%	0.9%	?	0%	25%
CCOc1ccc(NC(=O)c2ccc3c(c2)CCN3S(C)(=O)=O)cc1	5%	nt	nt	20%	nt	-8%	nt	-5%
CCc1nnc(NC(=O)CN2C(=O)c3ccccc3C2=O)s1	9%	-8%	-1%	1%	-1.1%	17%	-1%	-1%
CC1=C(C(=O)Nc2cccc([N+](=O)[O-])c2)C2(CCC(C)CC2)OC1=O (stereo not given)	0%	0%[46.1 µM]	0%	nt	nt	-13%	nt	-8%
CCn1c2ccccc2c2cc(NC(=O)COC(=O)c3cc(S(=O)(=O)N4CCCCC4)ccc3Cl)ccc21	-13%	2%	2%	?	0.1%	-13%	6.3µM*	27%
O=C(CCc1ccccc1)Nc1nc2c(F)cc(F)cc2s1	9%	0%	0%	-10%	nt	20%	nt	-5%
CN(C)CCn1c(C(=O)O)cc2ccccc21	14%	?	1%	-1%	2.9%	-13%	-1%	2%
CCOC(=O)c1cnc(-n2nc(C)cc2C)nc1NCCO	-16%	-3%	-4%	2%	3.9%	-10%	-2%	-1%
Cc1ccc(C2=NOC(C)(c3nnc(-c4ccc(Cl)cc4)o3)C2)cc1 (stereo not given)	-20%	nt	nt	-32%	nt	-18%	nt	-5%
COc1cccc(/C=C/C(=O)OCC(=O)NCc2ccc(Cl)cc2)c1	4%	-1%[46.1 µM]	6%	-9%	nt	-11%	nt	-3%
O=C(O)CC(NC(=O)C12CC3CC(CC(C3)C1)C2)c1ccc(OC2CCCC2)cc1 (stereo not given)	10%	?	15%	nt	nt	-8%	nt	0%
CCc1ccc(C(c2c(C)nn(-c3ccccc3)c2N)c2c(C)nn(-c3ccccc3)c2N)cc1	?	?	8%	-7%	-4.9%	0%	-6%	-1%
O=C(NCCSc1c[nH]c2ccccc12)c1ccc(Cl)cc1	nt	?	-14%[46.1 µM]	nt	-9.3%	-9%	5%	nt

Pulled one by one from the entries so far:
SMILES	RE007 growth inh	MARV entry inh	LASV entry inh	NS1 inh	Cruzain Triton	2A StopGo	Cruzain noTriton	SARS PLP yeast
CC1=C(C(=O)Nc2cccc([N+](=O)[O-])c2)C2(CCC(C)CC2)OC1=O (stereo not given)	0%	0%[46.1 µM]	0%	nt	nt	-13%	nt	-8%
CCc1nnc(NC(=O)CN2C(=O)c3ccccc3C2=O)s1	9%	-8%	-1%	1%	-1.1%	17%	-1%	-1%
